Screens: PubChem, several laboratories
GALR2 ag: GALR2 receptor agonists, primary screen, cell-based; GALR2-expressing cells, agonist activation read-out; activation, %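 (tested at 5 µM)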; 140,000 compounds, 0.48% hits;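 active = above mean plus 3 SD of all compounds, about 5% in these data, not always enough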;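 also: 0% = vehicle buffer wells and 100% = reference agonist at full effect; tested in CHO reporter cells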
Target sequence (O43603 whole entry, looked up): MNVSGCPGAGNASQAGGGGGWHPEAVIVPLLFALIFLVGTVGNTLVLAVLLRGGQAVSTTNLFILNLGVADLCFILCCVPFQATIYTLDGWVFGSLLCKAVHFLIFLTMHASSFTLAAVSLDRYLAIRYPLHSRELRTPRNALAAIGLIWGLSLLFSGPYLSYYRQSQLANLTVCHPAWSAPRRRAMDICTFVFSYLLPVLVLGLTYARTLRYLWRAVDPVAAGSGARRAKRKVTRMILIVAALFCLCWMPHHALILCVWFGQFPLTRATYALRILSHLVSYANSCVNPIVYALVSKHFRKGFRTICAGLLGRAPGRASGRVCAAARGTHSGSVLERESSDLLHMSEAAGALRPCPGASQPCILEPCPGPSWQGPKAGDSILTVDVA
HSV replic up: enhancers of HSV replication in host cells, fold increase, host cell viability. HSV replication augmentation in cells. maximum fold increase. 220,000 compounds, 0.005% hits;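 active = peak rise of 1.5-fold or more in the series; inconclusive = self-fluorescent or not available for retest; tested in PC3 cells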;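 also: first round at 10 µM; read as green reporter fluorescence; hits show the peak of a series up to 25 µM; 1 = signal of infected wells without compound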
PKD1 inh: inhibitors of human PKD1 kinase, biochemical, fluorescence polarization. Serine/threonine-protein kinase D1 (Homo sapiens), Q15139. 200,000 compounds, 0.056% hits. PKD1 kinase fluorescence polarization assay. AID 797, 2007. inhibition, %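 (about 10 µM by stock and volumes)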;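 active = inhibition of 50% or more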;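 also: controls were vehicle for no effect and a reference inhibitor for full effect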
RGS16-Gao: modulators of RGS16 binding to Galphao, primary screen, biochemical, human proteins, multiplexed bead flow cytometry; Regulator of G-protein signaling 16 (Homo sapiens) + Guanine nucleotide-binding protein …; bead-based flow cytometry RGS16-Galphao binding, fluorescence; actives lie on both sides; binding response (% of control), % at 10 µM; 220,000 compounds, 0.38% hits;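 active = below 25% or above 175%, edge rows of some plates excepted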;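 also: Galphao activated by GDP with aluminum fluoride before binding; 100% = wells without compound and 0% = beads without RGS; some results beyond the cut were filed as inactive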
Target sequence (O15492 whole entry, looked up): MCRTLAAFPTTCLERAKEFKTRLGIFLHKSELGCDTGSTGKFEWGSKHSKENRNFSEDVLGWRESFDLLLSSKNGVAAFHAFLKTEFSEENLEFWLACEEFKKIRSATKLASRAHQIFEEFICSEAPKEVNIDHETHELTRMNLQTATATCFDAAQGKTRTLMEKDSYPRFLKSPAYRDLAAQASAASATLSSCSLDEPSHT
Target sequence (P09471 whole entry, looked up): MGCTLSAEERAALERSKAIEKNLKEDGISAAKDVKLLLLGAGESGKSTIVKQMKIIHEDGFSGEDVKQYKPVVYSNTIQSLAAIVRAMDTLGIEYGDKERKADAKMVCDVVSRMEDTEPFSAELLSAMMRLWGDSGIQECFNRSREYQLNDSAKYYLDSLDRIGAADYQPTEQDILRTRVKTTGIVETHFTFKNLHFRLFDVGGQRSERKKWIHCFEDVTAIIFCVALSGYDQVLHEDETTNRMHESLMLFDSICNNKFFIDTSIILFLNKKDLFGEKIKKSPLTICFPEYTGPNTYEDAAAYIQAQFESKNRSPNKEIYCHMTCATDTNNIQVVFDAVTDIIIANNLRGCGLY
INS promoter inh: inhibitors of insulin promoter-driven GFP, primary screen, imaging, TRM-6 cells (human fetal islet line), eGFP reporter, cell count; reporter expression induced with tamoxifen; inhibition, % at 2 µM; 130,000 compounds, 0.9% hits; AID 1273, 2008;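 active = inhibition above the mean plus 3 SD, with well images judged a real hit on visual review, cut at about 60% in these data, passing the limit was not always enough; inconclusive = inhibition over the cutoff but images rejected on review; inactive = inhibition not above the cutoff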
INS promoter inh cell count: further read-out of INS promoter inh, marked with its call; normalized cell count, %; measured here: cell count, toxicity; reference of the scale not given here;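 cells exposed to compound for 48 h; stained nuclei by imaging scaled within each plate; lower means fewer cells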
HSV replic up primary fold: recorded beside HSV replic up, whose call it bears; fold increase; compound at 10 µM; measured here: primary screen fold increase 10 uM; tested in PC3 cells;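 GFP signal in the first replicate; 1 = infected wells without compound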
The depositor's hits bear a star; i = inactive; ? = inconclusive; nt = no result given; & = joins results of further samples. Random draw from the library; about 1.1% have a hit in one of these screens.

SMILES	GALR2 ag	HSV replic up	HSV replic up primary fold	PKD1 inh	RGS16-Gao	INS promoter inh	INS promoter inh cell count
O=Cc1c(Sc2ccccn2)nc2ccccn2c1=O	-2.3	i	1.1	-8	71	8	108
O=C(O)c1ccc(N2CCCCS2(=O)=O)cc1	nt	i	0.86	-10	106	35	126
CCCCCCCn1c(=N)n(CC(O)c2ccco2)c2ccccc21 (stereo unspecified)	nt	i	1.3	2	101	nt	nt
COc1ccc(C(=O)O/N=C(\N)c2ccccc2)c(OC)c1	0.8	i	0.95	-8	107	-64	99
O=C1NN(c2cccc(Br)c2)C(=O)/C1=C/c1cccs1	nt	i	0.91	nt	96	nt	nt
COc1cc(CN(C(=O)c2ccco2)c2ccc(C)cc2)ccc1O	-2.5	i	0.99	-5	103	62	96
O=C(Cc1cccc2ccccc12)Nc1ccc(OC(F)F)c(Cl)c1	-0.9	i	0.85	-6	106	27	125
CCC1CCCCN1Cc1cc(OC)c(O)c([N+](=O)[O-])c1 (stereo unspecified)	0.4	i	0.95	-12	101	nt	nt
O=C1NN(c2ccccc2)C(=O)/C1=C\c1ccc(-c2cc([N+](=O)[O-])ccc2O)o1	nt	i	1	-1	98	nt	nt
C=CCn1c(SCC(=O)Nc2ccc(F)cc2)nc2cc(C(=O)O)ccc2c1=O	nt	i	1	-7	98	21	129
Cc1cc(Cl)c(OCCCNCc2ccccc2)c(Br)c1	-1.1	i	0.84	17	95	19	119
Cc1ccccc1NC1=NS(=O)(=O)c2ccccc21	-3.6	i	0.88	-7	102	-186	120
Cc1ccc(C)c(N=Nc2ccc(O)c3ncccc23)c1	nt	i	0.56	2	97	-186	38
O=c1oc2c(CN3CCOCC3)c(O)ccc2c2c1CCCC2	5.0*	i	0.97	-6	100	-9	99
COc1cc(CC(=O)NCC2COc3ccccc3O2)cc(OC)c1OC (stereo unspecified)	nt	i	0.98	2	93	nt	nt
O=[N+]([O-])c1ccccc1/C=C/C=N/n1c(-c2ccco2)n[nH]c1=S	nt	i	1.1	-1	95	41	88
CCc1ccc(NC(=O)c2ccc(OC)c([N+](=O)[O-])c2)cc1	-0.8	i	0.89	-6	101	16	130
COCCCNC(=O)CC(=O)N/N=C\c1ccc(SC)cc1	nt	?	nt	-3	106	nt	nt
CCCCCn1c(SCC#N)nc2cc(C(=O)NCC3CCCO3)ccc2c1=O (stereo unspecified)	-2.4	i	0.78	-2	87	nt	nt
Cc1cc(C)n2cc(-c3ccc(Cl)cc3)c(C(=O)O)c2n1	nt	i	0.89	8	102	0	142
O=C(N=C1c2ccccc2CN1c1ccc(F)c(Cl)c1)c1cccnc1Cl	0.0	i	1.1	2	93	18	79
O=C(Cn1c[n+](CC(=O)c2ccc([N+](=O)[O-])cc2)cn1)c1ccc([N+](=O)[O-])cc1	nt	i	0.84&1	nt	95&97	nt	nt
O=c1c(C(c2c(O)nc3n(c2=O)CCS3)c2cccc3ccccc23)c(O)nc2n1CCS2	0.1	i	1	-7	97	-26	124
COc1ccc(N(CC(=O)NCCC2=CCCCC2)S(=O)(=O)c2ccccc2)cc1	nt	i	0.94	nt	97	nt	nt
Cc1cccc(-c2nnc(NC(=O)c3ccc(Cl)cc3)o2)c1	-1.1	i	0.98	-12	99	nt	nt
CCN(CC)S(=O)(=O)c1ccc(C)c(C(=O)Oc2cccc(-c3cnc4ccccc4n3)c2)c1	-0.6	i	1	-2	102	38	228
COc1cccc(C2=NOC(C(=O)NCCN3CCOCC3)C2)c1 (stereo unspecified)	0.2	i	0.99	-7	97	-82	74
Cc1ccc(CN2C(=O)NC(Cc3c[nH]c4ccccc34)C2=O)cc1 (stereo unspecified)	-0.2	i	0.93	-9	101	nt	nt
O=C(/C=C/c1ccc(Cl)cc1Cl)Nc1cccc(S(=O)(=O)NC2=NCCC2)c1	nt	i	0.78	-1	101	0	124
O=C(OCC(=O)c1ccco1)c1ccc2ncsc2c1	-2.6	i	0.96	-20	97	nt	nt
CC(C)(C)Nc1nc(NCc2cccnc2)nc(N2CCOCC2)n1	-0.7	i	0.87	7	103	-45	91
COc1ccc(CC2(CO)CCN(S(=O)(=O)c3sccc3C)CC2)cc1	nt	i	1.1	-10	112	nt	nt
O=C(C1=C[C@H](c2coc3ccccc3c2=O)C[C@H](OCCCCO)O1)N1CCN(Cc2ccc3c(c2)OCO3)CC1	nt	i	0.9	9	99	nt	nt
CCOC(=O)C1CCN(C(=O)c2ccc(N(C)S(C)(=O)=O)cc2)CC1	-2.0	i	1	6	104	39	92
O=C1NC(C(F)(F)F)(C(F)(F)F)N=C2SC=CN12	nt	i	1.1	nt	108	nt	nt
Cc1[nH]c2ccc(Cl)cc2c(=O)c1CN1CCCC1	nt	i	0.99	2	104	-25	105
CN(CCOc1ccccc1)CC(=O)Nc1ccc([N+](=O)[O-])cc1Cl	nt	i	0.93	-3	95	19	113
Cc1nn(Cc2ccccc2)c(Cl)c1C(=O)OCC#N	nt	i	0.97	-6	117	18	104
O=C(NC1CC1)c1cc2c(s1)-c1ccccc1OC2	-2.4	i	0.92	-9	104	nt	nt
CCCC[n+]1ccn(-c2nc3ccccc3nc2[N-]S(=O)(=O)c2ccc(Cl)cc2)c1	nt	i	0.96	nt	97	nt	nt
C#CCOCCOCCOCCNc1nc(N2CCN(C(=O)Cn3cc(CCCN=C(N)N)nn3)CC2)nc(N2CCN(C(=O)[C@H]([C@@H](C)CC)n3cc(CCCN=C(N)N)nn3)CC2)n1	-0.8	nt	nt	0	106	43	104
O=C(NCc1ccc2c(c1)OCO2)c1cc2ccccc2o1	-1.6	i	0.93	-2	100	22	123
COc1ccc(CCN(Cc2nc3ccccc3c(=O)[nH]2)C(=O)C2CC2)cc1	nt	i	1.1	-6	101	nt	nt
Cc1c(NC(=O)Cn2nc(C(F)(F)F)c3c2CCCC3)c(=O)n(-c2ccccc2)n1C	-2.1	i	1.1	-6	93	-5	101
COC(=O)c1c(-c2c(Cl)cccc2Cl)noc1NC(=O)NN1CCCCC1	nt	i	0.84	nt	102	nt	nt
O=C(Nc1nccs1)C1C2CC3OC(=O)C1C3C2 (stereo unspecified)	-2.6	i	0.92	-4	102	-250	85
Oc1[nH]c2ccc(Br)cc2c1N=Nc1ccc(C(F)(F)F)cn1	-1.4	i	1.1	0	41	18	101
O=C(NNC(=O)c1nn(-c2ccc(F)cc2)ccc1=O)c1ccc(C(F)(F)F)cc1	nt	i	1.1	nt	101	nt	nt
O=C(C(=O)N1CCOCC1)c1cn(CC(=O)N2CCc3ccccc3C2)c2ccccc12	nt	i	1	-8	101	nt	nt
CC(=O)N(Cc1cc(=O)[nH]c2ccccc12)c1cccc(C)c1	-1.2	i	0.87	-5	100	nt	nt
CNC(=S)NCCc1ccccc1	nt	i	0.93	nt	107	nt	nt
Cc1cc(C(=O)NNC(=O)c2ccc(Cl)cc2)no1	nt	i	1.1	nt	96	nt	nt
CCCn1c(/C=C/c2ccccc2)nc2ccccc21	-1.6	i	0.79	10	103	nt	nt
COc1ccc(CCNC(=O)CCCCCN2C(=O)c3ccccc3C2=O)cc1OC	-0.1	i	1.1	-5	96	-36	79
CCOc1ccc(Cn2c(=O)sc3ccccc32)cc1	nt	i	1.1	nt	98	nt	nt
Cc1cc(C(=O)N2CCN(C(c3ccccc3)c3ccccc3)CC2)no1	-0.2	i	0.85	-6	133	23	108
O=C(NCCc1ccccc1)C(=S)N1CCCCC1	nt	i	1	-1	101	nt	nt
COc1cc(NC(=O)C2CCCN(c3ncccn3)C2)cc(OC)c1 (stereo unspecified)	-1.9	i	0.86	-5	96	-6	143
CC(=O)c1c(C)[nH]c(C(=O)NCc2ccccc2Cl)c1C	0.6	i	0.81	13	100	nt	nt
CCC(C)NC(=O)CS(=O)Cc1nc(-c2cccc(OC)c2)oc1C (stereo unspecified)	-2.0	i	1	-4	114	nt	nt

Following part
SMILES	GALR2 ag	HSV replic up	HSV replic up primary fold	PKD1 inh	RGS16-Gao	INS promoter inh	INS promoter inh cell count
Cc1c(Cl)c(=O)oc2cc(OC(C)C)ccc12	1.3	i	0.94	0	101	-10	127
Cc1ccc(NCc2n[nH]c(=S)n2-c2ccccc2)cc1Cl	nt	nt	nt	-6	98	-62	121
CCn1nnnc1NC(=O)c1cccc(OC)c1	nt	i	1.1	1	95	45	73
COCc1c(C(=O)OCC(=O)NCCN2C(=O)CSC2=O)oc2ccccc12	-0.5	i	0.95	-6	89	25	88
Nc1nc(SCC(=O)N2N=C3/C(=C/c4ccco4)CCCC3C2c2ccco2)n[nH]1 (stereo unspecified)	-0.7	i	0.87	-6	100	5	93
CC(C)Cc1[nH]c(=O)c(C#N)c2c1COC(C)(C)C2	-0.2	i	0.91	-4	101	62	82
O=C(CN1CCN(c2ccccc2F)CC1)NC(=O)NCc1ccco1	nt	i	0.9	-3	98	-71	135
COc1ccc(NC(=O)Cc2ccc(Cl)cc2Cl)cn1	nt	i	0.82	-1	99	nt	nt
CC(C(=O)O)n1nc2ccccc2n1 (stereo unspecified)	-2.1	i	1.1	-6	102	0	89
CN(C(=O)C1CCN(S(=O)(=O)c2cccs2)CC1)C1CCCCC1	-0.3	i	0.94	-12	97	nt	nt
CN1CCN(C(=O)c2cc3sccc3n2CC(=O)c2ccccc2)CC1	-2.1	i	0.93	15	102	nt	nt
CCn1c(CSc2nc3ccccc3[nH]2)nc2cc(C(=O)O)ccc21	-3.1	i	0.82	0	114	5	95
CCOC(=O)CSc1nnc(-c2ccccc2)o1	-1.1	i	1	-3	177	43	140
CCCCNC(=O)CNC(=S)N(CCCN1CCOCC1)Cc1cccs1	-0.3	i	1.1	7	108	-59	77
Fc1ccc(C(c2nnnn2Cc2cccs2)N2CCN(C3CCCC3)CC2)cc1 (stereo unspecified)	-0.8	i	1	-1	97	-180	80
O=C(O)c1cc(-c2ccccc2)nc2ccccc12	-0.1	i	0.78	-17	98	-18	93
O=C(COc1ccc(Br)cc1)Nc1ccccc1N1CCCC1	nt	i	0.91	3	93	nt	nt
O=C(CN(Cc1ccco1)S(=O)(=O)c1ccccc1)N/N=C/c1cccc(O)c1	-3.9	i	0.99	5	101	-46	108
Cc1ccc(C)c(OCCn2cc(/C=C(/C#N)C(=O)NCC3CCCO3)c3ccccc32)c1 (stereo unspecified)	-0.2	i	0.8	-5	101	-88	77
COc1ccc(O)c(N)c1	nt	i	0.98	-6	68	nt	nt

Three of the entries above in order of their number in HSV replic up primary fold, rising.
compound	GALR2 ag	HSV replic up primary fold	PKD1 inh	RGS16-Gao
Cc1ccc(C)c(OCCn2cc(/C=C(/C#N)C(=O)NCC3CCCO3)c3ccccc32)c1 (stereo unspecified)	-0.2	0.8	-5	101
O=C(CN(Cc1ccco1)S(=O)(=O)c1ccccc1)N/N=C/c1cccc(O)c1	-3.9	0.99	5	101
CC(C(=O)O)n1nc2ccccc2n1 (stereo unspecified)	-2.1	1.1	-6	102

New compounds follow:
SMILES	GALR2 ag	HSV replic up	HSV replic up primary fold	PKD1 inh	RGS16-Gao	INS promoter inh	INS promoter inh cell count
CC(C)C(NC(=O)c1ccccc1Br)c1ccccc1 (stereo unspecified)	nt	i	1.1	-2	101	nt	nt
CCOc1ccc(C(=O)Nc2ccccc2NC(C)=O)cc1OCC	nt	i	0.94	-6	108	-43	84
COc1ccc(OC)c(/C=C2\S/C(=N/NC(=O)c3ccc4ccccc4c3)NC2=O)c1	-0.4	i	1.1	-4	105	nt	nt
CCN(C(C)=O)c1nnc(CSc2nc3ccccc3s2)s1	-1.8	i	0.97	-3	99	-54	142
CC(=O)Nc1ccc(SCC(=O)Nc2cc(C(C)(C)C)nn2-c2ccccc2)cc1	-0.7	i	1	2	104	3	68
O=C(Nc1ccc(OC(F)F)cc1)Nc1cccc(C(F)(F)F)c1	0.2	i	0.5	-2	100	-43	92

4 compounds already listed, sorted by length of the SMILES, falling.
SMILES	GALR2 ag	HSV replic up	HSV replic up primary fold	PKD1 inh	RGS16-Gao	INS promoter inh	INS promoter inh cell count
COc1ccc(OC)c(/C=C2\S/C(=N/NC(=O)c3ccc4ccccc4c3)NC2=O)c1	-0.4	i	1.1	-4	105	nt	nt
O=C(Nc1ccc(OC(F)F)cc1)Nc1cccc(C(F)(F)F)c1	0.2	i	0.5	-2	100	-43	92
CCOc1ccc(C(=O)Nc2ccccc2NC(C)=O)cc1OCC	nt	i	0.94	-6	108	-43	84
COc1ccc(O)c(N)c1	nt	i	0.98	-6	68	nt	nt
